High-throughput results from PubChem BioAssay.
ARFGAP1 inh: rat ARFGAP1 inhibition | Arfgap1-stimulated ARF1 GTP hydrolysis, GDP FP detection | inhibition, % at 16.5 µM | 360,000 compounds, 0.26% hits | AID 651572;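 active = inhibition above a per-plate limit, mean inhibition of low control wells plus 3 SD, cut at about 25% in these data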;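 note: 0% = DMSO wells with enzyme and 100% = wells lacking Arfgap1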
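System: truncated rat Arfgap1 GAP domain / Medium: HEPES-based buffer, pH 7.5 / Also added: N-terminally truncated human ARF1-GTP substrate / Incubation: enzyme reaction 120 min at 25 °C after 20 min preincubation / Measured by: FP of antibody-bound GDP Alexa 633 tracer, ex 620/em 688 nm / Replicates: singlicate, each compound tested once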
GC-B act: GC-B (human) receptor activation; P20594; HEK293-GC-B cells, CNP EC30, cGMP TR-FRET; 0% at EC30 CNP, 100% saturating CNP; activation, % at 10 µM; 370,000 compounds, 0.11% hits;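 active = activation at 10 µM reaching about 35% in either raw or pattern-adjusted values, limit read from the data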
HTRA1 inh: inhibitors of human serine peptidase HTRA1; Q92743; recombinant HTRA1, FP-rhodamine activity-based probe, fluorescence polarization; inhibition, % at 5.96 µM; 340,000 compounds, 0.5% hits; AID 504803; in the data active = inhibition above about 36%;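 note: 0% = enzyme with DMSO and 100% = wells lacking enzyme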
ASAP1 inh: ASAP1 ArfGAP inhibition; inhibition, % at 16.5 µM; 360,000 compounds, 0.19% hits; ASAP1-stimulated ARF1 GTP hydrolysis, GDP FP detection; Q9ULH1; in the data active = inhibition above about 25%;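 note: 0% = vehicle with enzyme and substrate and 100% = no enzyme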
Target sequence (Q9ULH1 325-724 limits assumed): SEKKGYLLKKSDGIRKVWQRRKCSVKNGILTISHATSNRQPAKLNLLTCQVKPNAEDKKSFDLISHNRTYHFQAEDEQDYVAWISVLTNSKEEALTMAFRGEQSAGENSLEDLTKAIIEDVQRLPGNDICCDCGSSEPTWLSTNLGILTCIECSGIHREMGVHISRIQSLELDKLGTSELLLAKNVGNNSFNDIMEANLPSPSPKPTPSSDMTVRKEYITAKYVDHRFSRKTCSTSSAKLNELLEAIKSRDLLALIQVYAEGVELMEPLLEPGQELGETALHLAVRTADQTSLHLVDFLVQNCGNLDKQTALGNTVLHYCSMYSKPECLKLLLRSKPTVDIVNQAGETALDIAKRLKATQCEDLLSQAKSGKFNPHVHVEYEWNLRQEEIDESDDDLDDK
GC-A act: GC-A (human) enzyme activation; AID 1671463; HEK293 GC-A cells, cGMP TR-FRET, EC30 ANP; 0% at EC30 ANP, 100% saturating ANP; P16066; activation, % at 10 µM; 370,000 compounds, 0.14% hits; in the data active = activation above about 40%
ABHD4 inh: inhibitors of mouse ABHD4; Q8VD66; purified mABHD4, FP-Rh probe fluorescence polarization; inhibition, % at 8.92 µM; 370,000 compounds, 0.54% hits;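 active = inhibition exceeding the mean over every tested compound plus 3 SD, cut at about 30% in these data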;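 note: 0% = plate median of compound wells and 100% = S159A mutant with DMSO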
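Test system: mouse ABHD4 enzyme, wild type. Reagent: FP-Rh fluorescent activity-based probe, added after compound pre-incubation. Timing: pre-incubation 45 min, probe exposure 60 min, at 25 °C. Technique: FP readout, ex 525 nm / em 598 nm. Benchmarks: high control S159A mutant with DMSO, low control median of compound wells.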
An asterisk follows results filed as active; nt = not tested or not shown; & = joins results of further samples. A portion of the library; count on the stated rates, not on these rows.

SMILES | ARFGAP1 inh | GC-B act | HTRA1 inh | ASAP1 inh | GC-A act | ABHD4 inh
CC(C)(C)NC(=O)[C@@H]1C[C@@H]2CCCC[C@@H]2CN1C[C@@H](O)[C@H](Cc1ccccc1)NC(=O)[C@H](CC(N)=O)NC(=O)c1ccc2ccccc2n1 | -3&7 | 0&9 | -32&-29 | 23&3 | 0&2 | -7&4
COc1cccc2nc3c(C(=O)NCCN(C)C)cccc3cc12 | -3 | -7 | 11 | -7 | -7 | 8
CCCCNc1ccc(C(=O)O)cc1 | -1 | -1 | 1 | 3 | 0 | -4
Cc1nn(-c2ccccc2)c(Cl)c1/C=N/NC(=O)c1ccncc1 | 5 | -2 | 2 | -7 | 4 | 2
Cc1ccccc1Nc1nc(N)nc(C)c1Br | -5 | -5 | 2 | -10 | 2 | 15
CN(C)CCCN1c2ccccc2CCc2ccccc21 | 6 | -20 | 6 | 4 | -28 | 3
CCN1/C(=C\c2ccc3cc(C)ccc3[n+]2CC)Sc2cc(C)c(C)cc21 | 10 | 2 | -15 | 10 | -9 | -126
COc1ccc(Cn2cc(C(=O)O)c(=O)c3ccccc32)cc1 | -1 | -5 | -3 | -10 | -4 | 4
Cc1ccc(/C=C/C(=O)c2ccccc2)cc1 | -4 | -3 | -15 | 9 | -8 | -10
COc1ccccc1C(=O)NNC(=S)NC(=O)c1ccco1 | -5 | 3 | 4 | 0 | -2 | 2
Nc1ccn([C@@H]2O[C@H](CO)[C@@H](O)[C@@H]2O)c(=O)n1 | -3 | 4 | 5 | 7 | 3 | -1
COc1cccc(N2CCN(CC(=O)Nc3ccc(-n4cnnn4)cc3)CC2)c1 | -4 | 0 | 0 | -2 | 0 | 7
Cc1ccccc1C(=O)N/N=C/c1ccc(Sc2ccccn2)o1 | -2 | 5 | -2 | -11 | -4 | -8
CCCCCCCn1ccc(=N)cc1 | 1 | 2 | -2 | -10 | 9 | 8
Cc1cc(C)c(CNC(=O)c2cc(C3CC3)nc3c2cnn3C(C)C)c(=O)[nH]1 | 9 | 6 | -1 | 8 | 1 | 6
O=C(NCc1cccnc1)c1cc(-c2ccco2)on1 | nt | -2 | -1 | nt | 5 | nt
CCN(CC)c1ccc(/C=C/c2cccc[n+]2C)c(OC)c1 | -5 | -14 | -106 | 4 | -14 | -169
CS(=O)(=O)c1ccc([C@@H](O)[C@@H](CF)NC(=O)C(Cl)Cl)cc1 | -13 | -4 | 3 | 6 | 7 | 5
CCOC(=O)c1c(C)oc2ccc(O)cc12 | -4 | -9 | -3 | -3 | -3 | 6
CN(C)C(=O)c1cccc(COc2ccc(N3C(N)=NC(N)=NC3(C)C)cc2Cl)c1 | 5 | 0 | -3 | 2 | 3 | 1

Single records (already shown).
Results for CCN1/C(=C\c2ccc3cc(C)ccc3[n+]2CC)Sc2cc(C)c(C)cc21 = ARFGAP1 inh: 10; GC-B act: 2; HTRA1 inh: -15; ASAP1 inh: 10; GC-A act: -9; ABHD4 inh: -126
Results for Cc1cc(C)c(CNC(=O)c2cc(C3CC3)nc3c2cnn3C(C)C)c(=O)[nH]1 = ARFGAP1 inh: 9; GC-B act: 6; HTRA1 inh: -1; ASAP1 inh: 8; GC-A act: 1; ABHD4 inh: 6

(more compounds)
SMILES | ARFGAP1 inh | GC-B act | HTRA1 inh | ASAP1 inh | GC-A act | ABHD4 inh
O=C1NC(=S)SC1=Cc1ccccn1 | -8 | 1 | nt | -3 | 1 | 5
CC(C)(C)c1ccc(-n2ncc3c2CCCC3NC(=O)CCN2CCCC2=O)cc1 (centres undefined) | -4 | -7 | 2 | -3 | 6 | 4
O=C(O)C1CCN(S(=O)(=O)/C=C/c2ccccc2)CC1 | -4 | 1 | 5 | -12 | 5 | 1
COc1c2occc2cc2ccc(=O)oc12 | 18 | 5 | -6 | 3 | 6 | -3
COc1ccc(C[C@H](C)NC[C@@H](O)c2ccc(O)c(NC=O)c2)cc1 | 3 | 0 | 1 | 0 | -3 | -4
NC(=O)C(c1ccccc1)(c1ccccc1)[C@@H]1CCN(CCc2ccc3c(c2)CCO3)C1 | nt | -10 | nt | nt | -20 | 1
COc1cccc(C(=O)Nc2cc3c(cc2N2CCCC2)n(C)c(=O)n3C)c1 | 11 | -4 | 7 | 7 | -4 | 8

Three entries out of the list, ordered by molecular weight, low to high.
SMILES | ARFGAP1 inh | GC-B act | HTRA1 inh | ASAP1 inh | GC-A act | ABHD4 inh
COc1c2occc2cc2ccc(=O)oc12 | 18 | 5 | -6 | 3 | 6 | -3
COc1ccc(C[C@H](C)NC[C@@H](O)c2ccc(O)c(NC=O)c2)cc1 | 3 | 0 | 1 | 0 | -3 | -4
NC(=O)C(c1ccccc1)(c1ccccc1)[C@@H]1CCN(CCc2ccc3c(c2)CCO3)C1 | nt | -10 | nt | nt | -20 | 1
